RE007 growth inh: qHTS Assay for Inhibitors of the HIV-1 protein Vpr. 0.21% of 360,000 active. Potency, µM (highest dose often 92.2 µM), inactives show at the top dose activity change, negative = less growth. S. pombe RE007 Vpr strain, BacTiter-Glo ATP luminescence, 24 h; control for the full effect not named in the record; active = well fitted falling curve with a large enough effect; inconclusive = small, poorly fitted or top-dose-only effect; inactive = no such curve, though single readings can be large or run the other way;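 also: % is scaled to controls: 0 for no effect and ±100 for the full control effect; nearly all actives have a fitted effect of over 50% in size; the assay follows cell death caused by Vpr and the record does not say whether a fall means rescue or toxicity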
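Fission yeast RE007 carrying one integrated HIV-1 vpr copy, seeded at OD 0.01 in PMG+AL medium with 23 nL pinned compound. Grown 24 h at 30 degrees; viability read by BacTiter-Glo luminescence after 5 min.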
StopGo reporter: High Throughput Screening for Foot and Mouth Disease Virus Antivirals. Potency, µM (doses to about 57.9 µM), for inactives: at the highest dose signal change, negative = less light. human cells with a luciferase reporter of 2A StopGo recoding; control for the full effect not named in the record. 1.2% of 410,000 active; active = well fitted falling curve with a large enough effect; inconclusive = small, poorly fitted or top-dose-only effect; inactive = no such curve, though single readings can be large or run the other way; tested in HEK293T cells; also: % is scaled to controls: 0 for no effect and ±100 for the full control effect; nearly all actives have a fitted effect of over 45% in size; luciferase light after 4 h
NS1 function inh: qHTS Assay for Inhibitors of Influenza NS1 Protein Function; S. cerevisiae slowed by influenza A NS1, growth recovery by OD600; Potency, µM (titrated, usually from 46.1 µM), for inactives: at the top dose activity, positive = more growth; AID 2326, 2010; 0.4% of 270,000 active; active means well fitted rising curve with a large enough effect; inconclusive means small, poorly fitted or top-dose-only effect; inactive means no such curve, though single readings can be large or run the other way; also: nearly all actives have a fitted effect of over 50% in size
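In this qHTS, NS1 from influenza A is expressed in budding yeast, where it slows growth. Cells are switched from glucose to 2% galactose medium (pH 6.0, -URA), treated with compound, and growth recovery is read at OD600.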
Cruzain inh noDet: qHTS Assay for Promiscuous and Specific Inhibitors of Cruzain (without detergent); purified cruzain, Z-FR-AMC fluorescence, no detergent; Potency, µM, inactives show max response, negative = inhibition, usual class: inhibitors; 2.3% of 200,000 active; AID 1476, 2009;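 also: plate controls were enzyme without inhibitor for no effect and buffer without enzyme for full effect; nearly all actives have a fitted effect of over 40% in size; top concentration of the series not given in the record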
Target sequence (P25779 123-467 limits assumed): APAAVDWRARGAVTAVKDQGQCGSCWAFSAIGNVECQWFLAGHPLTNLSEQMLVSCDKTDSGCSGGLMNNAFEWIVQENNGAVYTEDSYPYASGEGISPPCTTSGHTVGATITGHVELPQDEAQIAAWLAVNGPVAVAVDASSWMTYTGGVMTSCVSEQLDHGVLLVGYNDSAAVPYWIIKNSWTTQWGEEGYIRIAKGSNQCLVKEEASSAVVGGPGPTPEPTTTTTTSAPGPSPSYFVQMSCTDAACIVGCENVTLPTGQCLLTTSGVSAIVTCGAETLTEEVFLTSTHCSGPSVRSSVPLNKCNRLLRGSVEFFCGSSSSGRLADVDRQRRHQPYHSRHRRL
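Detergent-free condition (0.00005% Triton X-100) in acetate buffer pH 5.5 with DTT. 1.5 nM enzyme and compound were pre-mixed 15 min, then 2 uM Z-FR-AMC substrate added; reaction progress from fluorescence change between first and third reads (60 s).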
SARS PLpro yeast: qHTS of Yeast-based Assay for SARS-CoV PLP; S. cerevisiae expressing SARS-CoV PLpro, growth rescue; control for the full effect not named in the record; Potency, µM (titrated, usually from 32.9 µM), without a hit: at the highest dose activity, positive = growth rescue; 0.19% of 330,000 active; active means well fitted rising curve with a large enough effect; inconclusive means small, poorly fitted or top-dose-only effect; inactive means no such curve, though single readings can be large or run the other way; also: 0% is about no effect; nearly all actives have a fitted effect of over 55% in size; growth read by luminescence after 48 h
Lassa entry inh: qHTS for Inhibitors of binding or entry into cells for Lassa Virus; Lassa virus pseudotype entry inhibition, cell reporter; control for the full effect not named in the record; Potency, µM (series often up to 37.9 µM), without a hit: top-dose activity change, negative = inhibition, usual class: inhibitors; 1.2% of 300,000 active; AID 540256, 2011; active means well fitted inhibition curve with a large enough effect; inconclusive means small, poorly fitted or top-dose-only effect, or effect the other way; inactive means flat fitted curve, though single readings scatter; tested in HEK293 cells; also: % is scaled to controls: 0 for no effect and ±100 for the full control effect; nearly all actives have a fitted effect of over 50% in size; luciferase read-out
MARV entry inh: qHTS for inhibitors of binding or entry into cells for Marburg Virus | Potency, µM (doses to about 37.8 µM), for inactives: at the top dose activity change, negative = inhibition, usual class: inhibitors | Marburg virus pseudotyped entry inhibition, cell reporter; control for the full effect not named in the record; about a third of the inactives were read at about 46 µM | 1.8% of 300,000 active; active = well fitted inhibition curve with a large enough effect; inconclusive = small, poorly fitted or top-dose-only effect, or effect the other way; inactive = flat fitted curve, though single readings scatter; tested in HEK293 cells; about a fifth of its hits are not listed in these tables; also: % is scaled to controls: 0 for no effect and ±100 for the full control effect; luciferase read-out
Cruzain Triton: qHTS Assay for Promiscuous and Specific Inhibitors of Cruzain (with detergent) | Cruzipain (Trypanosoma cruzi), P25779 | Potency, µM, for the others: max response, negative = inhibition, actives largely listed as inhibitors | 0.43% of 200,000 active | purified cruzain, Z-FR-AMC fluorescence, 0.01% Triton;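 also: plate controls were neutral wells for no effect and buffer without enzyme for full effect; nearly all actives have a fitted effect of over 40% in size; top concentration of the series not given in the record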
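Sodium acetate buffer (100 mM, pH 5.5) containing 5 mM DTT and 0.01% Triton X-100 hosted 1.5 nM cruzain and test compound for 15 min at room temperature. Cleavage of 2 uM Z-FR-AMC was then tracked by fluorescence.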
An asterisk follows results filed as active; ? = inconclusive; nt = no result given; & = joins results of further samples; [ ] = another dose, or the depositor's remark. Unless noted, calls follow the shape of the dose curve; as a rule, active = well fitted curve in the direction sought with a large enough effect; inconclusive = small, poorly fitted or top-dose-only effect, or another doubt; inactive = no such curve, though single readings can be large; an effect the other way counts as inactive or inconclusive. Potency is read from the fitted curve at half-maximal effect.

SMILES	RE007 growth inh	StopGo reporter	NS1 function inh	Cruzain inh noDet	SARS PLpro yeast	Lassa entry inh	MARV entry inh	Cruzain Triton
CS(=O)(=O)N1CCC(c2noc(-c3ccc(C(F)(F)F)cc3)n2)CC1	11%	?	-8%	29%	-4%	?	?	-9.4%
Cc1cc(C)cc(Oc2coc3cc(OC(=O)c4cccs4)ccc3c2=O)c1	-13%	-1%	-12%	?	6%	5%	0%	5.0%
O=C(N/C(=C/c1ccco1)C(=O)N1CCCCC1)c1cccs1	2%	6%	1%	2%	1%	19%	0%	2.3%
O=C(C1CCN(S(=O)(=O)Cc2ccccc2)CC1)N1CCN(c2ccc(F)cc2)CC1	nt	-21%	nt	?	nt	-30%[46.1 µM]	-20%[46.1 µM]	-12%
COc1ccc(-n2nc3c(c2NC(=O)C2CC2)CS(=O)C3)cc1 (stereo unspecified)	9%	20%	-18%	13%	-2%	3%	1%[46.1 µM]	-1.3%
O=C1[C@H]2CCC=C[C@H]2[C@H](c2cccc(Br)c2)N1Cc1ccccc1	4%	-20%	nt	-14%	-69%	nt	nt	-2.5%
Cc1ccccc1C(=O)N1CCN(c2ccc(NC(=O)CSc3ccc(Cl)cc3)cc2)CC1	-13%	?	15%	0%	0%	?	11µM*	-2.3%
Cc1cc(Cl)ccc1OCCCC(=O)NCCc1nnc2ccccn12	-17%	-7%	-7%	nt	12%	-6%[46.1 µM]	13%[46.1 µM]	nt
CCn1c(C(=O)N2CCC(C(=O)N3CCC4(CC3)OCCO4)CC2)cc2sccc21	6%	nt	0%	?	-4%	0%	-13%	1.5%
CCOC(=O)C1=C(C)NC2=C(C(=O)CCC2)C1c1cn(Cc2ccc(Cl)cc2Cl)nc1-c1ccccc1 (stereo unspecified)	6%	-1%	?	0%	5%	-12%	?	-23%
CO/N=C(\CS(=O)(=O)Cc1ccc(OC)cc1)c1ccc(Cl)cc1	-1%	-20%	7%	2%	3%	?	-5%	0.1%
Cc1cc(C)cc(Nc2nc3ccccc3n3cnnc23)c1	nt	-4%	nt	6%	nt	26%[46.1 µM]	-21%[46.1 µM]	-1.8%
CCN(CC)CCNC(=O)C(=O)Nc1cc2c3c(c1)CCC(=O)N3CCC2	-3%	39%[activator]	-15%	nt	3%	1%[46.1 µM]	-28%[46.1 µM]	nt
COc1ccc(Cc2n[nH]c(=S)n2C)cc1Br	18%	-1%	3%	nt	0%	7%	-14%	nt
CCCCn1c(N)c(N(CCOC)C(=O)c2cccc(-n3cnnn3)c2)c(=O)[nH]c1=O	1%	12%	nt	nt	-3%	22%	?	nt
CCOc1ccc2oc(-c3ccccc3)c(C(=O)N3CCN(CCO)CC3)c2c1	-15%	27%	-13%	4%	-1%	-13%	-27%	-12%
Cc1cc(=O)nc2c3ccccc3n(CC(=O)NCCCN3CCCCC3C)n12 (stereo unspecified)	-11%	-19%	2%	nt	2%	nt	nt	nt
CC(C)(NO)/C(=N\O)c1ccccc1	16%	-9%	-3%	3%	-5%	3%	14%	4.5%
CCCN(CCC)CCCNC(=O)c1cnn(-c2ccc(F)cc2)c1-n1cccc1	nt	-22%	nt	-6%	nt	?	nt	-0.9%
COc1ccc(C(=O)O)cc1S(=O)(=O)N(CCc1ccccc1)Cc1ccccc1	-7%	-14%	4%	nt	-1%	nt	nt	nt
O=C1NC(=O)C(c2cn(-c3ccccc3)nc2-c2ccc(F)cc2)N1 (stereo unspecified)	-8%	-20%	11%	-3%	5%	15%	2%	0.3%
CCCc1nc(SCC(=O)c2ccccc2)c2c(=O)n(C)c(=O)n(C)c2n1	6%	?	-10%	8%	-2%	nt	nt	-4.8%
O=C(COc1ccc2c(-c3ccccc3)cc(=O)oc2c1)NCCCN1CCOCC1	2%	9%	7%	nt	2%	nt	nt	nt
CCOC(=O)c1c(NCC(C)C)c2ccccc2[nH]c1=O	-6%	?	2%	0%	-16%	14%	-2%	2.5%
CCC(=O)Nc1cccc(NC(=O)CSc2nc3c(c(=O)n(C)c(=O)n3C)n2C)c1	-1%	-15%	2%	nt	3%	-19%	1%[46.1 µM]	nt

Continuation.
SMILES	RE007 growth inh	StopGo reporter	NS1 function inh	Cruzain inh noDet	SARS PLpro yeast	Lassa entry inh	MARV entry inh	Cruzain Triton
O=C(NCc1cccnc1)c1ccc(=O)oc1	16%[3.69 µM]	-8%	2%	-5%	-5%	-12%	-11%&-11%	-5.9%
CCCn1c(C(=O)c2ccc(OC)cc2)nc2ccccc21	-9%	13%	2%	nt	-1%	-13%[46.1 µM]	4%[46.1 µM]	nt
Cc1ccc(S(=O)(=O)N2CCOC2CNC(=O)C(=O)NCCN2CCOCC2)cc1 (stereo unspecified)	-9%	-7%	4%	nt	-1%	-4%	12%	nt
CCOC(=O)c1[nH]c(C)c(CCC(=O)NCc2ccc(N(C)C)cc2)c1C	nt	-7%	nt	4%	nt	1%[46.1 µM]	nt	3.5%
Cc1ccc(Cn2c(=O)c3c(nc4n3CCCN4Cc3ccccc3)n(C)c2=O)cc1	4%	0%	-39%	?	-1%	-10%	-13%	-3.0%
C=CCOc1ccc(/C=C/C(=O)OCC(=O)NC2CCCCCCC2)cc1	3%	-22%	15%	nt	-3%	-28%[46.1 µM]	-2%[46.1 µM]	nt
CCOC(=O)C1CCC/C1=N\NC(=O)CN(c1cc(OC)ccc1OC)S(=O)(=O)c1ccccc1 (stereo unspecified)	20%	25%	15%	nt	-2%	nt	11%[46.1 µM]	nt
C[C@H](NC(=O)OCc1ccccc1)C(=O)NNC(=O)[C@H](C)NC(=O)OCc1ccccc1	0%	-17%	-1%	nt	0%	nt	nt	nt
COc1cccc(NC(=O)C2CCN(S(=O)(=O)c3ccc4[nH]c5c(c4c3)CCCCC5)CC2)c1	nt	-15%	nt	20µM*	nt	-28%[46.1 µM]	nt	-1.7%
CC(C)c1ccccc1NC(=O)c1ccccc1NC(=O)C1CCCCC1	12%	0%	-7%	4%	4%	6%	?	-5.1%
CCOC(=O)C1(Cc2ccccc2)CCCN(C(=O)c2cn[nH]c2)C1 (stereo unspecified)	-11%	1%	17%	nt	0%	nt	nt	nt
CC(C)NC(=O)Cn1c(=O)c2c(ncn2Cc2ccccc2)n(Cc2ccccc2)c1=O	2%	-2%	6%	-5%	3%	4%	-1%	2.7%
COCCCNC(=O)c1cccs1	4%	-11%	-5%	-6%	6%	2%	7%[46.1 µM]	6.6%
CCC(C)c1ccccc1OCCCNC1CCCC1 (stereo unspecified)	-13%	-19%	7%	nt	-1%	nt	nt	nt
CCCCn1c(N)c(N(CC(C)C)C(=O)c2cccc(S(=O)(=O)N3CCCCC3)c2)c(=O)[nH]c1=O	-8%	-12%	nt	nt	-3%	11%	21%[46.1 µM]	nt
CC(=O)Nc1nnc(CCN(CCc2nnc(NC(C)=O)s2)[N+](=O)[O-])s1	-5%	-16%	4%	nt	1%	9%[46.1 µM]	7%[46.1 µM]	nt
CCOc1ccccc1Nc1nnc(SCC(=O)Nc2ccc3[nH]c(=O)[nH]c3c2)s1	-23%	-3%	-3%	nt	2%	8%[46.1 µM]	-10%[46.1 µM]	nt
Cc1cc(C(=O)NCC(=O)OCC(=O)Nc2ccc(OC(F)F)cc2)ccc1[N+](=O)[O-]	-6%	-10%	-6%	10µM*	27%	9%	?	11µM*
COc1ccc(NC(=O)CCCn2c(=O)c3cccn3c3ccccc32)c(OC)c1	nt	-22%	nt	?	nt	?	nt	-3.0%
O=c1c2ccccc2oc2cc(NCCCn3ccnc3)ccc12	-6%	19%	2%	nt	-12%	nt	nt	nt
COc1ccc(CCNC(=O)CCCc2ccccc2)cc1OC	-23%	1%	-4%	nt	0%	-2%[46.1 µM]	3%[46.1 µM]	nt
CN(C)CC1CCC/C(=C\c2ccc(OC(=O)/C=C/c3ccccc3)cc2)C1=O (stereo unspecified)	?	40µM*	nt	nt	nt	17%	-2%	nt
O=c1oc2ccccc2c(N2CCC(c3ccccc3)CC2)c1[N+](=O)[O-]	1%	?	nt	nt	-5%	2%	?	nt
c1ccc(-c2ccccc2OCCOCCN2CCCCC2)cc1	-6%	-22%	-5%	7%	-10%	?	?	1.6%
CCc1cc(=O)oc2c(C)c(OCC(=O)N3CCCc4ccccc43)ccc12	1%	?	-32%	-2%	-2%	?	?	-11%

The listing continues.
SMILES	RE007 growth inh	StopGo reporter	NS1 function inh	Cruzain inh noDet	SARS PLpro yeast	Lassa entry inh	MARV entry inh	Cruzain Triton
COc1cc(/C=N/NC(=O)c2nonc2N)cc(OC)c1OC	13%	-1%	nt	nt	0%	11%[46.1 µM]	3%[46.1 µM]	nt
Cc1cc(Cl)ccc1OCC(=O)N/N=C1\CC2C=CCC12 (stereo unspecified)	-7%	12%	19%	-1%	?	-2%	20%	-1.8%
Cc1cc(=O)oc(C)c1C(=O)OCC(=O)c1ccc(Br)cc1	40%	-1%	1%	1%	-26%	?	13%	-8.9%
O=S(=O)(c1ccccc1)N1CCN(c2ccccc2)CC1	1%	-1%	3%	nt	-3%	nt	nt	nt
O=C(COC(=O)[C@H](Cc1ccccc1)NC(=O)c1ccco1)NC(c1ccccc1)c1ccccc1	-12%	-8%	-5%	5%	4%	21%	-14%	-6.5%
CN(C)S(=O)(=O)c1cccc(-c2csc(N/N=C/c3ccco3)n2)c1	-11%	-20%	?	nt	0%	-6%	-26%[46.1 µM]	nt
Cc1cc([N+](=O)[O-])nn1CC(=O)Nc1cc(F)ccc1F	-6%	57%[activator]	4%	nt	0%	nt	nt	nt
C=CCc1cccc(/C=N/NC(=O)CCC(=O)Nc2ccc(F)cc2)c1O	27%	-18%	17%	12%	22%	?	13µM*	-4.1%
c1ccc(SCCOCCN2CCOCC2)cc1	-14%	20%	15%	nt	4%	-20%	-2%	nt
COc1ccc(/C=C2\N=C(C(C)(C)C)OC2=O)c(OC)c1	-15%	-13%	6%	nt	26%	nt	nt	nt
CCCCN1CCc2c([nH]c3ccc(C)cc23)C1=O	-13%	65%[activator]	1%	?	3%	?	23%	13%
O=C(CN1CCc2ccccc21)NN1CC(=O)N(c2ccccc2)CC1=O	25%	-15%	5%	nt	-1%	nt	nt	nt
Cc1ccc2nc(C3CCCN3Cc3nc(CCC(C)C)no3)[nH]c2c1 (stereo unspecified)	-13%	-13%	?	nt	-2%	-1%[46.1 µM]	?	nt

From PubChem BioAssay
